Bioassay records as filed in PubChem BioAssay.
TR SRC2 fluor cs – alters Texas Red total fluorescence, flagging assay interference | Potency, µM (titrated, usually from 106 µM), for inactives: at the highest dose fluorescence change, negative = quenching | TRb/SRC2 Texas Red total fluorescence interference | hit rate 0.29% among 280,000; active means well fitted curve in either direction with a large enough effect; inconclusive means small, poorly fitted or top-dose-only effect
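Flags fluorescent or light-absorbing compounds by total fluorescence, S + 2P, at 555 nm excitation and 632 nm emission. Mixture: 20 nM Texas Red SRC2 peptide, 0.6 uM human TRb LBD, 1 uM T3, 5% DMSO; compound exposure 5 h at ambient temperature.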
Tau FP inhib – tau fibrillization inhibition (FP) | P10636 | K18 P301L tau heparin fibrillization, Alexa594 FP, 6 h | Potency, µM (top dose mostly 57.7 µM), inactives show at the highest dose activity, negative = inhibition, actives largely listed as inhibitors | hit rate 0.39% among 280,000; further: nearly all actives have a fitted effect of over 55% in size
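Read-out: fluorescence polarization of Alexa 594-labeled tau (0.24 uM), 555 nm excitation, 632 nm emission. Mixtures held 15 uM unlabeled K18 P301L, compound and 20 uM heparin, pH 7 acetate buffer, incubated 6 hr at 37 C.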
Tau ThT inhib – tau fibrillization inhibition (ThT binding) | hit rate 2.1% among 270,000 | recombinant tau K18 P301L, heparin-induced fibrillization, ThT fluorescence | P10636 | Potency, µM (series often up to 57.4 µM), inactives show at the top dose activity, negative = inhibition, hits mostly inhibitors; further: nearly all actives have a fitted effect of over 55% in size
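ThT emission at 510 nm, taken 1 hr after adding 30 uM dye, quantifies aggregates formed when 20 uM heparin acts on human tau K18 P301L for 6 hr at 37 C.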
TRb SRC2 PPI – TRbeta-SRC2 interaction inhibition; P10828; TRbeta-SRC2 peptide binding, fluorescence polarization; receptor liganded with 1 µM T3; Potency, µM (doses to about 106 µM), for the others: at the highest dose activity change, negative = inhibition, most hits filed as inhibitors; hit rate 0.065% among 280,000; AID 1469;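 further: plate controls were bound peptide for no effect and peptide without receptor for full effect; nearly all actives have a fitted effect of over 50% in size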
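Assay buffer: 20 mM Tris-HCl, 100 mM NaCl, 10% glycerol, 1 mM EDTA, 0.01% NP-40, 1 mM DTT, 1 uM T3, 5% DMSO; TRb LBD 0.6 uM, Texas Red SRC2 20 nM; FP after 5 hr.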
L3MBTL1 inh – blocks human L3MBTL1; AlphaScreen L3MBTL1–H3K9me1 peptide binding; Potency, µM (series often up to 57.1 µM), without a hit: at the highest dose activity, negative = inhibition, hits mostly inhibitors; hit rate 0.66% among 230,000; AID 485360; further: nearly all actives have a fitted effect of over 60% in size
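First, the protein-peptide complex forms for 30 min at room temperature (L3MBTL1 50 nM, biotinylated H3K9me1 peptide 75 nM). Next, compounds are pin-transferred and incubated 30 min. Finally, AlphaScreen beads are added and read after 30 min.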
RECQ1 inh – inhibitors of human RECQ1 DNA helicase; AID 2549; P46063; RECQ1 DNA unwinding, red fluorescence kinetic read; Potency, µM (doses to about 57.3 µM), for inactives: at the top dose activity, negative = inhibition, hits mostly inhibitors; hit rate 0.54% among 240,000;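 further: plate controls were vehicle for no effect and no enzyme for full effect; nearly all actives have a fitted effect of over 30% in size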
Target sequence (P46063 whole entry, looked up): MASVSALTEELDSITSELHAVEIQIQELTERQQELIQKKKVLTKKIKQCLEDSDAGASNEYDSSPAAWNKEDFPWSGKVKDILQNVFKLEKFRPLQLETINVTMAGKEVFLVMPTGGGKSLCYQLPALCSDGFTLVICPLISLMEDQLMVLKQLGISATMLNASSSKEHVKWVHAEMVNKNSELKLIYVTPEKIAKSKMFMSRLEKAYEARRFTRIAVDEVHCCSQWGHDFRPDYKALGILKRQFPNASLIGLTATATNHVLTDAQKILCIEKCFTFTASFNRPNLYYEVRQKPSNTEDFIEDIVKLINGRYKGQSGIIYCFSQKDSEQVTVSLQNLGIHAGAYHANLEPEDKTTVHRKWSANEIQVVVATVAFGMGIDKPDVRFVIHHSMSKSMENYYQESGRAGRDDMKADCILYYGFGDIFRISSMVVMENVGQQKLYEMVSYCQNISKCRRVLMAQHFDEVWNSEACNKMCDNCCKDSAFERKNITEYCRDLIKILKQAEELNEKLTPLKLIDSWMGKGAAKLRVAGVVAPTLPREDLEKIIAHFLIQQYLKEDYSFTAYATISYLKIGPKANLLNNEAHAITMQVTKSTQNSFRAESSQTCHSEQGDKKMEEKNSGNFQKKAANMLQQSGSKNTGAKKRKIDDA
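50 nM RECQ1T1 preincubated 15 min with compound in Tris pH 8.0 buffer with MgCl2, DTT, Tween-20 and 2.5 ug/ml poly(dI-dC); started with 200 nM TAMRA/BHQ-2 forked duplex and 2 mM ATP. Unwinding read as fluorescence (525/598 nm), two reads 2 h apart.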
GoLoco inh red – blocks human Gai1 binding to RGS12 GoLoco peptide, red readout; P63096; Gai1:RGS12 GoLoco peptide FP, rhodamine, 10 min; Potency, µM (highest dose often 61.6 µM), for inactives: at the highest dose activity, negative = inhibition, hits mostly inhibitors; hit rate 0.44% among 230,000; active means well fitted inhibition curve with a large enough effect, not every such curve was filed as active; inactive means no such curve, though single readings can be large or run the other way; further: nearly all actives have a fitted effect of over 30% in size; many of its hits are not listed in these tables
Target sequence (P63096 whole entry, looked up): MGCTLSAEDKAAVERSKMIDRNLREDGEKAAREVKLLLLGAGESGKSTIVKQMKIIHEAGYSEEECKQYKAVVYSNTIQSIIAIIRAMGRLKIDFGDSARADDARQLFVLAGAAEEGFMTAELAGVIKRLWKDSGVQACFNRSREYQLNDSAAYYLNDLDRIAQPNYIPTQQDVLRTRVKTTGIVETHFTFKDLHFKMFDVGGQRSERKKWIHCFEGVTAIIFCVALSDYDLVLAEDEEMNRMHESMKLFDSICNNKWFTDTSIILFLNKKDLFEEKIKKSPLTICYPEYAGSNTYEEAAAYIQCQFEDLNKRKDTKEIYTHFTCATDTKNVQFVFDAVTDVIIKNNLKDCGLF
An asterisk follows results filed as active; i = inactive; ? = inconclusive; . = not tested or not shown; ! = repeats disagree; [ ] = dose if it differs, or a comment. Unless noted, the call rests on the fitted dose curve; in most records, active means well fitted curve in the direction sought with a large enough effect; inconclusive means small, poorly fitted or top-dose-only effect, or another doubt; inactive means no such curve, though single readings can be large; an effect the other way counts as inactive or inconclusive. Unless noted, on the % scale 0 is the no-effect control and ±100 the full control effect; potency means the concentration at half of the fitted maximal effect.

SMILES	TR SRC2 fluor cs	Tau FP inhib	Tau ThT inhib	TRb SRC2 PPI	L3MBTL1 inh	RECQ1 inh	GoLoco inh red
COc1ccccc1NC(=O)c1c(NC(=O)CCC(=O)O)sc2c1CCCCC2	-4%	?	?	-2%	-17%	-11%	6%
CCOC(=O)c1ccc(N/C=C/C(=O)c2ccc(OC)c(OC)c2)cc1	-5%	-1%	?	-21%	3%	-1%	-15%
CCOCc1[nH]c(=S)[nH]c(=O)c1Cc1ccc(OCC(C)C)cc1	2%[53 µM]	-3%	-16%	2%[53 µM]	-5%	i	62%[activator]
O=C(CSc1nc(O)cc(=O)n1-c1ccccc1)NC1CCCCC1	-8%	-12%	-14%	-7%	.	9%	305%[activator]
COCCN1C=C2C(=O)C(C)(OC(=O)CCc3ccccc3)C(=O)C=C2C=C1c1ccc(C#N)cc1 (centres undefined)	-4%[11.2 µM]	-3%[11.6 µM]	?	-2%[11.2 µM]	.	8%[11.5 µM]	-6%[14.2 µM]
COc1ccc(-c2c(C(C)=O)c(C)nc3sc4c(=N)n(N)cnc4c23)cc1	-1%	-4%	-11%	-4%	-3%	-26%	-2%
Cc1ccc(S(=O)(=O)NC(C)(C)CN2CCC(Cc3ccccc3)CC2)cc1	-4%	2%	-8%	4%	3%	-3%	-5%
COc1ccc(CN(C)CC(=O)Nc2ccc(Cl)cc2F)c(OC)c1	-3%	-13%	-17%	-6%	13%	-5%	-1%
CN1CCC(N(C)CC(=O)Nc2ccc3c(c2)OC(F)(F)O3)CC1	-2%	-4%	-12%	-1%	-18%	i	-14%
Cc1cc(=O)[nH]c(N/N=C/CCc2ccccc2)n1	-3%	?	?	-7%	.	-5%	-1%
C=CCNCCCCOc1ccc(OCc2ccccc2)cc1	-2%	5%	-5%	0%	-12%	i	5%
Cc1cc(C)c2nc(NNC(=O)c3cc(=O)c4ccccc4o3)sc2c1	-6%	-10%	5µM*	7%	-2%	i	7%
O=C(c1cccnc1)C1Cc2ccccc2C1=O (centres undefined)	-12%	-1%	?	-6%	32%[activator]	9%	1%
Oc1ccc(CN2CCCCC2)c2cccnc12	0%	-13%	?	-8%	?	-5%	8%
CC(C)OCCCN1C(=O)c2[nH]nc(-c3ccccc3O)c2C1c1cccc(Cl)c1 (centres undefined)	-1%	-6%	-14%	-13%	.	-2%	13%
COc1cc2c(cc1OC)CN(Cc1ccc(C)s1)CC2	-2%	2%	-17%	0%	.	-11%	13%
C[C@H](NC(=O)c1nc[nH]c1C(=O)NC(c1ccccc1)c1ccccc1)C(=O)OC(C)(C)C	-2%	?	?	-1%	28%	?	7%
COc1ccccc1C(=O)Nc1cc2cc(Cl)ccc2oc1=O	2%	1%	?	13%	8%	-3%	10%
Cc1ccc(CN2C(=O)C3CCCN3c3ccc(S(=O)(=O)N4CCOCC4)cc32)cc1 (centres undefined)	14%	-5%	-11%	20%	-3%	-12%	76%[activator]
CCOc1ccccc1NC(=O)C(NCCN(C)C)c1ccccc1 (centres undefined)	0%	-7%	0%	-4%	10%	i	-2%
CCOCCCNCC(=O)N1CCN(S(=O)(=O)c2ccc(C)cc2)CC1	-5%	-2%	-5%	-6%	3%	-10%	4%
CC1(OC(=O)C2CCCC2)C(=O)C=C2C=C(c3ccsc3)N(CCN3CCOCC3)C=C2C1=O (centres undefined)	-1%[11.2 µM]	?	?	1%[11.2 µM]	.	?	-3%[14.2 µM]
CC(=O)N1CCC(=NNc2nc3ccccc3[nH]2)CC1	-2%	-6%	?	1%	.	-8%	-6%
CCC(=O)NNc1nc2c(F)cccc2s1	0%	-5%	-6%	4%	2%	i	8%
C/C=C/c1ccc(OCCCCNCc2ccco2)c(OC)c1	-3%	2%	-10%	0%	-1%	-19%	8%
CCn1ncc(NC(=S)Nc2ccc(OC)c(OC)c2)c1C(N)=O	4%	-2%	?	-2%	-7%	18%	-2%
COC(=O)CCC(=O)OC1(C)C(=O)C=C2C=C(C3CC3)N(CC(C)C)C=C2C1=O (centres undefined)	1%[11.2 µM]	4%[11.6 µM]	0%[11.5 µM]	9%[11.2 µM]	.	0%[11.5 µM]	3.5µM*!
CC(C)C[C@H](NC(=O)c1nc[nH]c1C(=O)NC1CCN(C(=O)OC(C)(C)C)CC1)C(=O)OC(C)(C)C	0%	-7%	?	0%	-2%	-15%	-2%
COc1ccc(/C=C/C(=O)NC(=S)NNC(=O)c2cc(OC)c(OC)c(OC)c2)cc1OC	-4%	2%	?	0%	-10%	14%	-17%
CC(=O)NC(=S)NNC(=O)COc1ccc(Br)cc1	-1%	-6%	?	-5%	-8%	i	17%
COc1ccc(OC)c(CN2CCN(Cc3cccc4ccccc34)CC2)c1	-1%	-8%	-5%	5%	-14%	6%	-6%
C/C(=N\OC(=O)c1ccc(Br)cc1)c1ccccn1	-3%	-9%	?	-1%	-3%	i	-2%
CN(C)S(=O)(=O)c1ccc(NC(=O)CN2CCC(Cc3ccccc3)CC2)cc1	-2%	4%	-1%	-7%	?	-5%	4%
N#C/C(=C\c1ccc(Cl)c([N+](=O)[O-])c1)c1ccccn1	-4%	1%	?	3%	-8%[11.4 µM]	i	21%
CCCCNCC#CCOc1cc(C)ccc1C(C)C	0%	6%	12%	2%	91%[activator]	i	-3%
Cc1cc(Cl)c(OCCCCNC(C)(C)C)c(Br)c1	-6%	-2%	-3%	-7%	-4%	-9%	2%
Cc1cc(-c2nnc(SCC(=O)Nc3nccs3)o2)no1	-4%	0%	?	5%	.	0%	5%
CC1=CC(C)(C)N(C(=O)CNC2CCCCC2)c2cc(C)ccc21	-4%	-8%	-12%	1%	-10%	?	-11%
COc1ccccc1N1CCN(CC(=O)NCC2CCCO2)CC1 (centres undefined)	0%	-5%	-8%	-4%	22%[11.4 µM]	-2%	-4%
CN1CCc2c(sc3c2C(=O)NC(c2ccc4c(c2)OCO4)N3)C1 (centres undefined)	-2%	-1%	?	-6%	.	-2%	10%
CCN(CC)c1cc(C)c2cc(NC(=O)c3ccc(Br)o3)ccc2n1	-3%	?	?	-17%	-17%	-2%	13%
Oc1ccc(N=Cc2c(O)ccc3ccccc23)cc1	-25%	?	13µM*	?	?	-11%	7%
CCCCCCCC#Cc1ccccc1/C=N/S(=O)c1ccc(C)cc1 (centres undefined)	-10%[11.2 µM]	1%[11.6 µM]	?	4%[11.2 µM]	8%	-1%	0%
COn1c(C)c(C)c2c3nonc3ccc21	-1%	?	14µM*	?	31%[activator]	-6%	8%
O=C(CCn1cnc2ccccc2c1=O)Nc1nc2c(s1)CCCC2	-1%	0%	?	4%	1%	-4%	1%
CC(C)N(CCNCc1nnc(-c2ccccc2)o1)C(C)C	-3%	-2%	-7%	-3%	2%	-8%	2%
COC(=O)CCC(=O)OC1(C)C(=O)C=C2C=C(C3CC3)N(CCc3ccccn3)C=C2C1=O (centres undefined)	0%[11.2 µM]	-7%[11.6 µM]	?	7%[11.2 µM]	.	-4%[11.5 µM]	-8%[14.2 µM]
CCOc1ccc(-c2csc(NNC3=NCCCCC3)n2)cc1	1%	?	16µM*	-8%	-16%	-14%	-3%
CC1(OC(=O)C2CCCC2)C(=O)C=C2C=C(c3ccsc3)N(Cc3ccccc3)C=C2C1=O (centres undefined)	8%[11.2 µM]	?	10µM*!	4%[11.2 µM]	.	-4%[11.5 µM]	-2%[14.2 µM]
CC1=Nn2c(nc(-c3ccccc3)c2-c2ccccc2)NC(=O)C1Br (centres undefined)	0%	1%	-19%	-10%	.	-3%	17%
CCOC(=O)N1CCN(C(=O)c2ccc3nc(N4CCC(C)CC4)sc3c2)CC1	-1%	-4%	-6%	-2%	4%	-1%	9%
Cc1cccc(OCCCCNCc2ccccc2)c1	-2%	6%	-10%	1%	.	0%	-10%
O=C(CCc1ccc(CCC(=O)c2cccs2)s1)c1cccs1	2%	5%	-13%	5%	33%[activator]	-19%	6%
Nc1c(C(=O)O)sc2nc(-c3ccccc3)cc(-c3ccccc3)c12	-1%	3%	?	-2%	7%	-5%	32%[activator]
CC(NC(=O)CCn1nc(-c2ccc(Cl)cc2)ccc1=O)c1ccccc1 (centres undefined)	-6%	-1%	1%	-3%	.	-4%	-2%
Cc1[nH]n2c(=O)c(C#N)c(-c3ccccc3)nc2c1-c1ccccc1	-1%	-5%	-12%	-11%	6%	11%	-6%
CC(CCCC(C)(C)O)NC(=O)c1cc(COc2ccc3ncccc3c2)on1 (centres undefined)	-3%	-4%	-14%	-2%	3%	i	2%
CCN(Cc1ccccc1)C1CCN(Cc2ccc(SC)cc2)CC1	-4%	-2%	-18%	-3%	.	-2%	-4%
O=C(c1ccncc1)N1CCN(C2CCC(c3ccccc3)CC2)CC1 (centres undefined)	-3%	0%	.	-1%	.	?	-5%
CCOC(=O)c1c(C)[nH]c(-c2csc(N)n2)c1C	4%	?	25µM*	5%	?	0%	161%[activator]

Next part (5 carried over from the part before).
SMILES	TR SRC2 fluor cs	Tau FP inhib	Tau ThT inhib	TRb SRC2 PPI	L3MBTL1 inh	RECQ1 inh	GoLoco inh red
Cc1[nH]n2c(=O)c(C#N)c(-c3ccccc3)nc2c1-c1ccccc1	-1%	-5%	-12%	-11%	6%	11%	-6%
CC(CCCC(C)(C)O)NC(=O)c1cc(COc2ccc3ncccc3c2)on1 (centres undefined)	-3%	-4%	-14%	-2%	3%	i	2%
CCN(Cc1ccccc1)C1CCN(Cc2ccc(SC)cc2)CC1	-4%	-2%	-18%	-3%	.	-2%	-4%
O=C(c1ccncc1)N1CCN(C2CCC(c3ccccc3)CC2)CC1 (centres undefined)	-3%	0%	.	-1%	.	?	-5%
CCOC(=O)c1c(C)[nH]c(-c2csc(N)n2)c1C	4%	?	25µM*	5%	?	0%	161%[activator]
COc1ccc(-c2nnc3ccc(SCC(N)=O)nn23)cc1OC	-1%	8%	-15%	-18%	.	-9%	3%
COc1ccccc1NC(C)C(=O)Nc1ccc(C(C)=O)cc1 (centres undefined)	0%	1%	4%	-6%	-10%	3%	9%
O=C(CNCc1cccnc1)Nc1cc(C(F)(F)F)ccc1N1CCOCC1	-1%	-1%	-7%	-3%	5%	-14%	3%
C=CCN(CC=C)CCOc1ccccc1	-3%	2%	-2%	-2%	0%	i	-9%
CC(=O)N(Cc1cccs1)Cc1cc2ccc(C)c(C)c2nc1Cl	-2%	4%	-13%	-5%	15%	-4%	13%
COc1ccc2c(c1)C1=NN(/C(C)=C/C(C)=O)C(c3ccc(F)cc3)C1CC2 (centres undefined)	-4%	-3%	?	3%	3%	-1%	6%

Some of the compounds tested; the hit share may differ from the screen's.
